Vaccinia inh – Vaccinia orthopox stage-specific inhibition; Vaccinia-infected cells, mCherry/Venus stage reporter fluorescence; hits give low values; some inactives read as strong as hits; activity change (mCherry), % (concentration not given with the values); hit rate 0.01% among 89,000;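 active = mCherry past -33% and 40 or more points under the early reporter, replicates agreeing; inconclusive = past -33% without that gap or agreement; tested in A549 cells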;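 note: scaled between vehicle wells and reference inhibitor wells; 23 nL library stock went into each well; one replicate is shown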
Vaccinia inh Venus – further read-out of Vaccinia inh, marked with its call; activity change (Venus), %; measured here: Venus reporter, other viral stage;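 negative = less Venus signal; first of two replicates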
* = called active by the depositor; ? = inconclusive; · = not tested or not shown; & = joins results of further samples. Some of the compounds tested; count on the stated rates, not on these rows.

SMILES	Vaccinia inh	Vaccinia inh Venus
CO[C@H]1CN(C)C(=O)c2cc(NC(=O)NC3CCCCC3)ccc2OC[C@H](C)N(CC2CC2)C[C@H]1C	-16	-7
C/C=C/c1ccccc1[C@@H]1[C@@H](CO)N(S(=O)(=O)c2cccc(F)c2)[C@H]1C#N	-9	-5
O=C(N[C@H]1CC[C@H](CCNS(=O)(=O)Cc2ccccc2)O[C@H]1CO)c1ccccc1F	-2	0
COCC(=O)N(C)C[C@H]1Oc2ncc(C3=CCCCC3)cc2C(=O)N([C@H](C)CO)C[C@H]1C	5	9
CCCNC(=O)Nc1ccc2c(c1)OC[C@H](C)N(S(C)(=O)=O)C[C@@H](C)[C@@H](OC)CN(C)C2=O	4	6
C[C@H](CO)N1C[C@H](C)[C@@H](CN(C)C(=O)c2ccncc2)Oc2cc(-c3cccc(C#N)c3)ccc2S1(=O)=O	13	12
Cc1noc(C)c1NC(=O)Nc1ccc2c(c1)C(=O)N([C@@H](C)CO)C[C@H](C)[C@@H](CN(C)S(=O)(=O)c1cccs1)OCCCC[C@H](C)O2	16	12
C[C@@H]1CN([C@H](C)CO)C(=O)Cc2cc(NC(=O)NC3CCCCC3)ccc2O[C@H]1CN(C)S(=O)(=O)c1ccc(Cl)cc1	20	15
COCc1cn(CC[C@H]2CC[C@H](NC(=O)Nc3ccc(OC)cc3)[C@@H](CO)O2)nn1	4	5
COc1ccc2c3c([nH]c2c1)[C@H](CO)N(Cc1ccccc1)CC31CCN(C(=O)NC(C)C)CC1	13	6
COCC(=O)Nc1ccc2c(c1)OC[C@@H](C)N(C)C[C@@H](C)[C@@H](OC)CN(C)C2=O	-17	-8
C[C@H](CO)N1C[C@H](C)[C@@H](CN(C)C(=O)Nc2cccc3ccccc23)Oc2c(NC(=O)Nc3ccccc3)cccc2C1=O	8	10
C[C@H](CO)N1C[C@H](C)[C@@H](CN(C)S(=O)(=O)c2cn(C)cn2)Oc2ccc(NC(=O)C3CC3)cc2CC1=O	-11	-12
C[C@@H]1CN([C@@H](C)CO)C(=O)c2cc(NC(=O)C3CCCCC3)ccc2O[C@@H]1CN(C)Cc1ccccc1	2	6
CNC(=O)C[C@H]1CC[C@@H]2[C@H](COc3ccc(NC(=O)NC4CCCC4)cc3C(=O)N2C)O1	10	5
C[C@@H]1CCCCO[C@@H](CN(C)S(=O)(=O)c2ccccc2)[C@H](C)CN([C@@H](C)CO)C(=O)c2cc(NC(=O)c3ccccc3)ccc2O1	?	·
CCCC#Cc1cnc2c(c1)C(=O)N([C@@H](C)CO)C[C@@H](C)[C@H](CN(C)C(=O)NC1CCCC1)O2	15	5
COCC(=O)N1C[C@H](C)[C@H](OC)CN(C)C(=O)c2ccc(NC(=O)c3ccccc3)cc2OC[C@@H]1C	-4	-3
CO[C@@H]1CN(C)C(=O)c2ccc(NC(=O)c3ccccc3)cc2OC[C@H](C)N(C(=O)CN(C)C)C[C@H]1C	-7	0
O=S(=O)(c1cccs1)N1CCCCN2[C@H](C1)[C@H](c1ccc(C3=CCCCC3)cc1)[C@@H]2CO	-4	-8
CCC(=O)Nc1ccc2c(c1)OC[C@H](C)N(Cc1cncnc1)C[C@@H](C)[C@H](OC)CN(C)C2=O	3	2
Cc1ccccc1-c1ccc2c(c1)O[C@@H](CN(C)Cc1ccncc1)[C@@H](C)CN([C@@H](C)CO)S2(=O)=O	?	·
CCCNC(=O)N1C[C@H](C)[C@H](OC)CN(C)C(=O)c2ccc(NS(C)(=O)=O)cc2OC[C@@H]1C	9	10
CN(C)CCCNC(=O)C[C@@H]1CC[C@@H](NS(=O)(=O)c2ccccc2)[C@H](CO)O1	9	4
CO[C@H]1CN(C)C(=O)c2ccc(NS(=O)(=O)c3ccc(C)cc3)cc2OC[C@H](C)N(C)C[C@H]1C	-7	-3
O=C(Cc1ccncc1)NCC[C@H]1CC[C@H](NC(=O)C2CCCCC2)[C@H](CO)O1	6	10
CN1CCN(C(=O)C[C@@H]2C=C[C@@H](NC(=O)c3ccc4c(c3)OCO4)[C@H](CO)O2)CC1	-1	13
O=C(NCc1ccccc1)C1=C[C@H](c2ccc(C(F)(F)F)cc2)C[C@H](OCc2ccc(CO)cc2)O1	3	11
COc1cccc(CNC(=O)C[C@H]2C=C[C@H](NC(=O)C3CCOCC3)[C@@H](CO)O2)c1	9	4
C[C@H]1CN([C@@H](C)CO)C(=O)c2cc(NC(=O)C3CCCCC3)ccc2O[C@H]1CN(C)CC1CC1	-2	-7
COC(=O)CCCCCCC(=O)Nc1ccc(NC(=O)CCCC[P+](c2ccccc2)(c2ccccc2)c2ccccc2)cc1	10	-4
COc1ccc(-c2ccccc2[C@H]2[C@@H](C#N)N(C(=O)C3CCCC3)[C@@H]2CO)cc1	-1	0
C[C@@H]1CCCCO[C@@H](CN(C)C(=O)Nc2ccccc2)[C@@H](C)CN([C@@H](C)CO)C(=O)c2cc(NC(=O)NC3CCCCC3)ccc2O1	1	-11
C[C@@H]1CN([C@H](C)CO)S(=O)(=O)c2ccc(C#CC(C)(C)O)cc2O[C@@H]1CN(C)C(=O)CN(C)C	31	9
C/C=C/c1ccc([C@H]2[C@@H](CO)N(C(=O)COC)[C@H]2CNC(=O)CC)cc1	5	7
CN(C)C(=O)c1ccc(-c2ccc3c(c2)[C@@H]2[C@@H](CCN2C(=O)C2CC2)[C@@H](CO)N3C)cc1	2	-4
O=C([C@H]1[C@H](CO)[C@H]2Cn3c(ccc(C4=CCCCC4)c3=O)[C@@H]1N2Cc1nccs1)N1CCCCC1	8	4
COc1ccc(S(=O)(=O)Nc2ccc3c(c2)C(=O)N([C@@H](C)CO)C[C@@H](C)[C@@H](CN(C)Cc2ccc(-c4ccccc4)cc2)O3)cc1	-31	-15
N#C[C@H]1[C@H](c2ccc(C#Cc3ccc(F)cc3)cc2)[C@H](CO)N1C(=O)C1CCCC1	-26	-29
COc1ccc2c3c([nH]c2c1)[C@H](CO)N(C(=O)Nc1ccc(F)cc1)CC31CN(C(=O)Nc2c(C)noc2C)C1	-2	-5
CN1C(=O)c2cc(NC(=O)c3cccs3)ccc2OC[C@@H]2O[C@@H](CC(=O)N3CCOCC3)CC[C@H]21	-2	-4
COc1cccc(C#Cc2cnc3c(c2)C(=O)N([C@H](C)CO)C[C@@H](C)[C@H](CN(C)C(=O)C2CCC2)O3)c1	-22	-14
O=C(C[C@@H]1C[C@H]2c3cc(NC(=O)Cc4ccncc4)ccc3O[C@H]2[C@@H](CO)O1)NCc1ccc2c(c1)OCO2	-5	-4
C/C=C/c1ccc2c(c1)[C@H]1[C@H](CCN1C(=O)c1ccc(F)cc1)[C@H](CO)N2	1	-1
CO[C@H]1CN(C)C(=O)c2cc(NC(=O)CC(F)(F)F)ccc2OC[C@@H](C)N(C(C)=O)C[C@@H]1C	5	6
C[C@@H]1CCCCO[C@@H](CN(C)C(=O)Nc2ccccc2)[C@@H](C)CN([C@H](C)CO)C(=O)c2cc(NC(=O)Cc3ccccc3)ccc2O1	27	22
COc1cccc(C(=O)Nc2ccc3c(c2)C(=O)N(C)[C@@H]2CC[C@@H](CC(=O)N[C@@H](C)c4ccccc4)O[C@H]2CO3)c1	?	·
O=C(C[C@@H]1CC[C@H](NC(=O)Cc2cccnc2)[C@H](CO)O1)NCc1ccc2c(c1)OCO2	3	3
CCC(=O)N1C[C@@H](C)[C@H](OC)CN(C)C(=O)c2cc(NS(C)(=O)=O)ccc2OC[C@@H]1C	-2	-4
CO[C@@H]1CN(C)C(=O)c2cc(NC(=O)c3cnccn3)ccc2OC[C@H](C)N(CCc2ccccc2)C[C@@H]1C	13	12
C[C@@H]1CCCCO[C@H](CN(C)C(=O)C2CCCCC2)[C@H](C)CN([C@H](C)CO)C(=O)c2cc(NC(=O)c3ccccc3)ccc2O1	?	·
CCCNC(=O)N1C[C@H]2[C@@H](c3ccccc31)[C@H](CO)N2C(=O)Nc1ccc(F)cc1	-9	9
C[C@@H]1CCCCO[C@H](CN(C)C(=O)Nc2ccc(C(F)(F)F)cc2)[C@H](C)CN([C@H](C)CO)C(=O)c2cc(NC(=O)C3CCCCC3)ccc2O1	-4	-5
O=C(C[C@H]1C[C@@H]2c3cc(NC(=O)CC4CC4)ccc3O[C@@H]2[C@@H](CO)O1)NCc1ccccc1	4	2
CC(C)NC(=O)Nc1ccc2c(c1)CC(=O)N([C@H](C)CO)C[C@@H](C)[C@H](CN(C)Cc1ccccc1)O2	?	·
O=C(C[C@H]1C[C@@H]2c3cc(NC(=O)NC4CCCC4)ccc3O[C@@H]2[C@@H](CO)O1)NCc1cccnc1	30	11
C[C@@H]1CN([C@H](C)CO)C(=O)c2cc(C#Cc3ccccc3)cnc2O[C@@H]1CN(C)C(=O)CCN1CCCCC1	-23	-12
CCCNC(=O)N1C[C@@H](O)COC[C@@H]2O[C@H](CC(=O)N3CCCCC3)CC[C@H]21	11	8
C[C@H]1CCCCO[C@H](CN(C)Cc2ccncc2)[C@@H](C)CN([C@@H](C)CO)C(=O)c2cc(NS(=O)(=O)c3cn(C)cn3)ccc2O1	10	4
O=C(C[C@@H]1CC[C@@H]2[C@H](COC[C@@H](O)CN2C(=O)Nc2cccc(F)c2)O1)NCc1ccccc1Cl	-28	-14
Other records:
SMILES	Vaccinia inh	Vaccinia inh Venus
C[C@H]1CN([C@@H](C)CO)C(=O)c2cccc(NC(=O)Nc3ccccc3)c2O[C@@H]1CN(C)Cc1ccc2c(c1)OCO2	-6	-6
O=C(Cc1ccncc1)N[C@@H]1CC[C@H](CCn2cc(-c3ccccc3F)nn2)O[C@H]1CO	-1	-4
C[C@@H]1CN([C@@H](C)CO)C(=O)c2cccc(NC(=O)c3ccc(-c4nccs4)cc3)c2O[C@@H]1CN(C)Cc1ccc2c(c1)OCO2	-30	-22
CN1C(=O)c2cc(NC(=O)c3ccc(F)cc3)ccc2OC[C@@H]2O[C@H](CC(=O)O)CC[C@@H]21	2	6
C[C@@H]1CCCCO[C@H](CN(C)C(=O)Nc2ccc(C(F)(F)F)cc2)[C@@H](C)CN([C@H](C)CO)C(=O)c2cc(NS(=O)(=O)c3ccccc3)ccc2O1	-13	-13
C[C@@H]1CN([C@H](C)CO)C(=O)c2cc(-c3ccccc3)cnc2O[C@@H]1CN(C)C(=O)C1CCOCC1	18&11	2&-1
Cc1ccccc1S(=O)(=O)N1C[C@H](O)COC[C@H]2O[C@@H](CC(=O)N3CCOCC3)CC[C@@H]21	-3	-8
C[C@@H]1CCCCO[C@H](CN(C)C(=O)Nc2ccccc2)[C@H](C)CN([C@@H](C)CO)C(=O)c2cc(N(C)C)ccc2O1	-9	2
C[C@H](CO)N1C[C@H](C)[C@H](CN(C)Cc2ccccc2)Oc2c(NS(=O)(=O)c3cccs3)cccc2C1=O	3	3
C[C@H]1CN([C@@H](C)CO)C(=O)c2cc(NC(=O)CCC(F)(F)F)ccc2O[C@H]1CN(C)Cc1ccc(Oc2ccccc2)cc1	-34	-26
O=C(C[C@@H]1CC[C@H]2[C@@H](COC[C@H](O)CN2C(=O)c2ccccc2F)O1)NCc1ccc(F)cc1	12	6
C[C@H]1CN([C@@H](C)CO)C(=O)Cc2cc(NS(=O)(=O)c3ccc(Cl)cc3)ccc2O[C@@H]1CN(C)Cc1ccc(Cl)c(Cl)c1	?	·
CO[C@H]1CN(C)C(=O)c2cc(NC(=O)c3ccccc3F)ccc2OC[C@H](C)N(C(=O)c2ccccc2F)C[C@H]1C	9	5
C[C@H](CO)N1C[C@H](C)[C@H](CN(C)CC2CCCCC2)Oc2ccc(NC(=O)NC3CCCCC3)cc2CC1=O	-22	-22
C[C@@H]1CN([C@@H](C)CO)C(=O)c2ccccc2-c2ccccc2CO[C@@H]1CN(C)C(=O)N[C@H](C)c1ccccc1	5	-2
O=C(NCc1ccc(Cl)cc1)C1=C[C@H](c2coc3ccccc3c2=O)C[C@H](OCCCCO)O1	-21	-4

Reformatted: entries from further up.
| Structure | Vaccinia inh | Vaccinia inh Venus |
| --- | --- | --- |
| O=C(Cc1ccncc1)N[C@@H]1CC[C@H](CCn2cc(-c3ccccc3F)nn2)O[C@H]1CO | -1 | -4 |
| C[C@@H]1CN([C@@H](C)CO)C(=O)c2cccc(NC(=O)c3ccc(-c4nccs4)cc3)c2O[C@@H]1CN(C)Cc1ccc2c(c1)OCO2 | -30 | -22 |
| CN1C(=O)c2cc(NC(=O)c3ccc(F)cc3)ccc2OC[C@@H]2O[C@H](CC(=O)O)CC[C@@H]21 | 2 | 6 |
| C[C@@H]1CCCCO[C@H](CN(C)C(=O)Nc2ccc(C(F)(F)F)cc2)[C@@H](C)CN([C@H](C)CO)C(=O)c2cc(NS(=O)(=O)c3ccccc3)ccc2O1 | -13 | -13 |
| C[C@@H]1CN([C@H](C)CO)C(=O)c2cc(-c3ccccc3)cnc2O[C@@H]1CN(C)C(=O)C1CCOCC1 | 18&11 | 2&-1 |
| Cc1ccccc1S(=O)(=O)N1C[C@H](O)COC[C@H]2O[C@@H](CC(=O)N3CCOCC3)CC[C@@H]21 | -3 | -8 |
| C[C@@H]1CCCCO[C@H](CN(C)C(=O)Nc2ccccc2)[C@H](C)CN([C@@H](C)CO)C(=O)c2cc(N(C)C)ccc2O1 | -9 | 2 |
| C[C@H](CO)N1C[C@H](C)[C@H](CN(C)Cc2ccccc2)Oc2c(NS(=O)(=O)c3cccs3)cccc2C1=O | 3 | 3 |
| C[C@H]1CN([C@@H](C)CO)C(=O)c2cc(NC(=O)CCC(F)(F)F)ccc2O[C@H]1CN(C)Cc1ccc(Oc2ccccc2)cc1 | -34 | -26 |
| O=C(C[C@@H]1CC[C@H]2[C@@H](COC[C@H](O)CN2C(=O)c2ccccc2F)O1)NCc1ccc(F)cc1 | 12 | 6 |
| C[C@H]1CN([C@@H](C)CO)C(=O)Cc2cc(NS(=O)(=O)c3ccc(Cl)cc3)ccc2O[C@@H]1CN(C)Cc1ccc(Cl)c(Cl)c1 | ? | · |
| CO[C@H]1CN(C)C(=O)c2cc(NC(=O)c3ccccc3F)ccc2OC[C@H](C)N(C(=O)c2ccccc2F)C[C@H]1C | 9 | 5 |
| C[C@H](CO)N1C[C@H](C)[C@H](CN(C)CC2CCCCC2)Oc2ccc(NC(=O)NC3CCCCC3)cc2CC1=O | -22 | -22 |
| C[C@@H]1CN([C@@H](C)CO)C(=O)c2ccccc2-c2ccccc2CO[C@@H]1CN(C)C(=O)N[C@H](C)c1ccccc1 | 5 | -2 |

Screening data deposited in PubChem by Broad Institute.
